From PubChem BioAssay
CBX7 AlphaScr: CBX7 chromodomain binding inhibitors, primary screen, biochemical, AlphaScreen | hit rate 1.1% among 66,000 | normalised signal (fraction of DMSO) (test concentration not listed) | AlphaScreen His6-CBX7 / biotin-H3K27me3 peptide binding; hits give low values | Chromobox protein homolog 7 (Homo sapiens), O95931 | AID 1224903, 2016; in the data active means normalised signal below about 0.5;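 further: 100 nL library stock added to about 20 µL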
Target sequence (O95931 whole entry, looked up): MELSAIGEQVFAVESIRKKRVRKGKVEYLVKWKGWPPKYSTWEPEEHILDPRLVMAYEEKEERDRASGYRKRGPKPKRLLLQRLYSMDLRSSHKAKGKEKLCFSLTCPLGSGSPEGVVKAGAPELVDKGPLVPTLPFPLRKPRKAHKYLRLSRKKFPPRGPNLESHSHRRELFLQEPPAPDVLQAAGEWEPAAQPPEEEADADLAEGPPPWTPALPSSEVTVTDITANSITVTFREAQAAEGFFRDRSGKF
CBX7 AlphaScr z-score: also measured in CBX7 AlphaScr; calls as there; z-score; measured here: z-score of CBX7 signal; some inactives read as strong as hits; reference of the scale not given here;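 same signal on another scale; lower means less binding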
The depositor's hits bear a star. Not all compounds are listed (hit frequency here may not be typical).

Results for FC(F)(F)c1cccc(-c2nc(-c3cccs3)[nH]c2-c2ccccc2)c1 ?
CBX7 AlphaScr: 0.95; CBX7 AlphaScr z-score: -1.8

How did COc1ccc(CNC(=O)C2CCN(S(=O)(=O)c3cccs3)CC2)cc1 do in these assays?
CBX7 AlphaScr: 0.97; CBX7 AlphaScr z-score: -0.61

Results for Cc1cc(Nc2ccc(C(=O)O)cc2)n2nc(C)nc2n1 ?
CBX7 AlphaScr: 1; CBX7 AlphaScr z-score: -0.068

How did CCOc1ccc(CCNC(=O)CN2C(=O)CSc3ccccc32)cc1OCC do in these assays?
CBX7 AlphaScr: 1; CBX7 AlphaScr z-score: 0.76

How did CCOC(=O)c1cnc2ccc(OC)cc2c1Nc1cccc(Cl)c1C do in these assays?
CBX7 AlphaScr: 1.1; CBX7 AlphaScr z-score: 1.1

How did C=CCn1c(SCC(=O)Nc2ccccc2Cl)nnc1-c1cccnc1 do in these assays?
CBX7 AlphaScr: 1; CBX7 AlphaScr z-score: 0.65

How did COc1ccc(-c2nnc(Nc3ccc(OC)c(C(N)=O)c3)c3ccccc23)cc1 do in these assays?
CBX7 AlphaScr: 0.96; CBX7 AlphaScr z-score: -0.097

What do the screens show for `Cc1cccc(OCC(=O)Nc2ccc(NC(=O)COc3cccc(C)c3)cc2)c1`?
CBX7 AlphaScr: 1.2; CBX7 AlphaScr z-score: 0.64

How did c1ccc(Cn2c(CSc3ncn[nH]3)nc3ccccc32)cc1 do in these assays?
CBX7 AlphaScr: 1; CBX7 AlphaScr z-score: 0.45

How did COc1ccc(C(=O)Nc2nc3ccc(S(C)(=O)=O)cc3s2)cc1OC do in these assays?
CBX7 AlphaScr: 1.1; CBX7 AlphaScr z-score: 1.6

Results for CCc1ccc(Nc2nc(-c3ccccc3)c(CC(=O)O)s2)cc1 ?
CBX7 AlphaScr: 0.94; CBX7 AlphaScr z-score: -1.6

Results for CC(=O)CSc1nc(-c2ccccc2)c(-c2ccccc2)o1 ?
CBX7 AlphaScr: 1; CBX7 AlphaScr z-score: -0.045

Results for CCOC(=O)c1cnc2c(C)cc(C)cc2c1Nc1cc(C(=O)O)ccc1C ?
CBX7 AlphaScr: 1.1; CBX7 AlphaScr z-score: 1.1

What do the screens show for `CC1CCCN(Cc2c(O)ccc3cc(-c4nc5ccccc5s4)c(=O)oc23)C1` (configuration not stated)?
CBX7 AlphaScr: 1.1; CBX7 AlphaScr z-score: 0.2

What do the screens show for `COc1ccc(Nc2cc(C(=O)N3CC(C)CC(C)C3)c3ccccc3n2)c(OC)c1` (configuration not stated)?
CBX7 AlphaScr: 0.73; CBX7 AlphaScr z-score: -5

Results for CCN1CCCC1CNC(=O)CN1C(=O)CCSc2ccccc21 (configuration not stated) ?
CBX7 AlphaScr: 1; CBX7 AlphaScr z-score: 0.54

What do the screens show for `Cc1ccc2c(c1)-c1c(cnn1CC(=O)N(C)Cc1ccccc1)CO2`?
CBX7 AlphaScr: 1.1; CBX7 AlphaScr z-score: 2.4

What do the screens show for `CCOC(=O)Cc1nnc2c(Nc3ccccc3OC)nc3nonc3n12`?
CBX7 AlphaScr: 0.93; CBX7 AlphaScr z-score: -1

How did CC(C)(C)NC(=O)Cn1nnc(-c2ccc3c(c2)OCO3)n1 do in these assays?
CBX7 AlphaScr: 0.94; CBX7 AlphaScr z-score: -1.1

How did O=C(COc1nsnc1N1CCOCC1)Nc1ccc(OC(F)(F)F)cc1 do in these assays?
CBX7 AlphaScr: 0.98; CBX7 AlphaScr z-score: -0.38

What do the screens show for `CCOc1ccc(NC(=O)Cn2nc(Cc3ccncc3)c3ccccc3c2=O)cc1`?
CBX7 AlphaScr: 0.92; CBX7 AlphaScr z-score: -1.8

How did CCCCOC(=O)Cn1c(=N)n(CCN2CCOCC2)c2ccccc21 do in these assays?
CBX7 AlphaScr: 1; CBX7 AlphaScr z-score: 1.1

How did Cc1ccc(C)c2[nH]c(=O)c(CCNC(=O)C3CCCC3)cc12 do in these assays?
CBX7 AlphaScr: 0.98; CBX7 AlphaScr z-score: -0.47

Results for CCCOc1ccc(C(=O)Nc2nc3c(OCC)cccc3s2)cc1 ?
CBX7 AlphaScr: 1.1; CBX7 AlphaScr z-score: 1.4

The closing two records of the part before lead into the next.
How did Cc1ccc(C)c2[nH]c(=O)c(CCNC(=O)C3CCCC3)cc12 do in these assays?
CBX7 AlphaScr: 0.98; CBX7 AlphaScr z-score: -0.47

Results for CCCOc1ccc(C(=O)Nc2nc3c(OCC)cccc3s2)cc1 ?
CBX7 AlphaScr: 1.1; CBX7 AlphaScr z-score: 1.4

Results for CCC(=O)N1CCc2cc(S(=O)(=O)NCCN3CCCC3)ccc21 ?
CBX7 AlphaScr: 1.2; CBX7 AlphaScr z-score: 2.6

What do the screens show for `CCc1ccc2nc(N3CCC(C(=O)NCCC(C)C)CC3)sc2c1`?
CBX7 AlphaScr: 1.1; CBX7 AlphaScr z-score: 0.75

How did Nc1nonc1-n1nnc(C(=O)N2CCCCCC2)c1-c1ccccc1 do in these assays?
CBX7 AlphaScr: 0.98; CBX7 AlphaScr z-score: -0.89

How did Cc1cc(C(=O)CN2CCOCC2)c(C)n1-c1ccc(Br)cc1 do in these assays?
CBX7 AlphaScr: 0.95; CBX7 AlphaScr z-score: -0.62

How did COc1ccc2cc(CCNC(=O)c3ccc(Br)cc3)c(=O)[nH]c2c1 do in these assays?
CBX7 AlphaScr: 1; CBX7 AlphaScr z-score: 1.1

Results for COc1ccc(OC)c(CCNc2ccc3nnc(CCC(=O)Nc4ccc(C)c(C)c4)n3n2)c1 ?
CBX7 AlphaScr: 0.96; CBX7 AlphaScr z-score: -0.63

How did Clc1ccc2nc(-c3ccncc3)cc(-c3ccccc3)c2c1 do in these assays?
CBX7 AlphaScr: 0.88; CBX7 AlphaScr z-score: -1.4

How did COc1ccc(C2CC(=O)NC3=C2C(=O)CCC3)cc1 (configuration not stated) do in these assays?
CBX7 AlphaScr: 1.1; CBX7 AlphaScr z-score: 1.4

How did COc1ccc(OC)c(Nc2nc(-c3ccccn3)cs2)c1 do in these assays?
CBX7 AlphaScr: 0.38*; CBX7 AlphaScr z-score: -7.9*

Results for O=C(CCC1=NS(=O)(=O)c2ccccc2N1)N1CCN(c2cccc(Cl)c2)CC1 ?
CBX7 AlphaScr: 0.87; CBX7 AlphaScr z-score: -1.5

How did CCCNC(=O)Cn1cnc2sc(C(=O)NCC(=O)OC)c(C)c2c1=O do in these assays?
CBX7 AlphaScr: 0.96; CBX7 AlphaScr z-score: -1.2

Results for CC1CCN(c2c(NCc3ccc(C(=O)NCC4CCC(C(=O)O)CC4)cc3)c(=O)c2=O)CC1 (configuration not stated) ?
CBX7 AlphaScr: 1; CBX7 AlphaScr z-score: 1.8

2 entries picked at random from those above, as already listed:
How did COc1ccc2cc(CCNC(=O)c3ccc(Br)cc3)c(=O)[nH]c2c1 do in these assays?
CBX7 AlphaScr: 1; CBX7 AlphaScr z-score: 1.1

How did COc1ccc(C2CC(=O)NC3=C2C(=O)CCC3)cc1 (configuration not stated) do in these assays?
CBX7 AlphaScr: 1.1; CBX7 AlphaScr z-score: 1.4

(next part)
Results for Nc1n[nH]c(CC(=O)NC2(C(=O)Nc3ccccc3)CCCCC2)n1 ?
CBX7 AlphaScr: 0.59; CBX7 AlphaScr z-score: -0.4

What do the screens show for `Cn1c(SCC(=O)NCc2ccccc2Cl)nnc1-c1c[nH]c2ccccc12`?
CBX7 AlphaScr: 0.98; CBX7 AlphaScr z-score: -0.36

Results for CCOC(=O)c1sc(NC(=O)c2nn3c(C(F)(F)F)cc(-c4ccco4)nc3c2Cl)c(C(=O)OCC)c1C ?
CBX7 AlphaScr: 1.1; CBX7 AlphaScr z-score: 0.73

How did O=C(CSc1nnc(CNC(=O)c2cccs2)o1)c1ccccc1 do in these assays?
CBX7 AlphaScr: 1.1; CBX7 AlphaScr z-score: 2.6

Results for CC1=Nc2ccccc2NC(=O)C1Cc1ccccc1 (configuration not stated) ?
CBX7 AlphaScr: 0.98; CBX7 AlphaScr z-score: -0.61

What do the screens show for `Cc1ccc2c(c1C)NC(=O)CC2c1ccccc1Cl` (configuration not stated)?
CBX7 AlphaScr: 1; CBX7 AlphaScr z-score: 1.8

Results for O=C(CCCn1nc(-c2ccccc2)c2ccccc21)NCc1ccccc1 ?
CBX7 AlphaScr: 1.2; CBX7 AlphaScr z-score: 2.3

What do the screens show for `Cc1cc(C)c(C)c(OCc2nc(-c3cccnc3)no2)c1`?
CBX7 AlphaScr: 1; CBX7 AlphaScr z-score: -0.0038

How did COc1cccc(NC(=O)C2CCCN(S(=O)(=O)c3cccnc3)C2)c1 (configuration not stated) do in these assays?
CBX7 AlphaScr: 1.1; CBX7 AlphaScr z-score: 2.4

Results for CCN1CCN(CCCNC(=O)CCc2nc(-c3ccc(C)cc3)no2)CC1 ?
CBX7 AlphaScr: 1.2; CBX7 AlphaScr z-score: 3.5

How did CCN1C(=O)c2ccccc2S(=O)c2ccc(C(=O)NCCc3ccc(C)cc3)cc21 (configuration not stated) do in these assays?
CBX7 AlphaScr: 0.99; CBX7 AlphaScr z-score: -0.16

Results for Cc1noc(/C=C/c2cccs2)c1S(=O)(=O)N1CCCC(C(=O)NCCN(C)C)C1 (configuration not stated) ?
CBX7 AlphaScr: 1; CBX7 AlphaScr z-score: 0.032

What do the screens show for `CCc1cccc(NC(=O)CCc2c(C)nc3nc(C)nn3c2C)c1`?
CBX7 AlphaScr: 1.1; CBX7 AlphaScr z-score: 0.23

Results for O=C(Cn1nc(Cc2cccnc2)c2ccccc2c1=O)NCc1ccc(Cl)cc1 ?
CBX7 AlphaScr: 0.91; CBX7 AlphaScr z-score: -0.12

How did O=C(NCc1nc2ccccc2n1Cc1ccccc1F)c1cccs1 do in these assays?
CBX7 AlphaScr: 0.87; CBX7 AlphaScr z-score: -2

How did O=C(Nc1ccc(F)c(Cl)c1)C1CC(=O)N(c2ccc(F)cc2)C1 (configuration not stated) do in these assays?
CBX7 AlphaScr: 1; CBX7 AlphaScr z-score: 0.27

Results for CCOC(=O)N1CCC(NC(=O)C2CCN(Cc3nc(-c4ccc(CC)cc4)oc3C)CC2)CC1 ?
CBX7 AlphaScr: 0.79; CBX7 AlphaScr z-score: -3.2

What do the screens show for `COc1ccc(Nc2c3c(nc4ccccc24)CCCC3)cc1OC`?
CBX7 AlphaScr: 0.87; CBX7 AlphaScr z-score: -3.8

How did Cc1nccn1-c1c2c(c(C#N)c3nc4ccccc4n13)CCC2 do in these assays?
CBX7 AlphaScr: 1; CBX7 AlphaScr z-score: 0.21

How did COc1cc2c(cc1OC)C1C(C(=O)N3CCN(C)CC3)c3ccccc3C(=O)N1CC2 (configuration not stated) do in these assays?
CBX7 AlphaScr: 1; CBX7 AlphaScr z-score: 0.021

Results for COc1ccc(NC(=O)C(=O)NCCc2ccc(OC)c(OC)c2)cc1Cl ?
CBX7 AlphaScr: 1; CBX7 AlphaScr z-score: 0.47

How did CCN(CCNC(=O)Cn1nc(-c2ccc(Cl)cc2)ccc1=O)c1ccccc1 do in these assays?
CBX7 AlphaScr: 0.86; CBX7 AlphaScr z-score: -7.3

What do the screens show for `C=C(C)Cn1c(CCCNC(=O)Cc2ccccc2)nc2ccccc21`?
CBX7 AlphaScr: 1.1; CBX7 AlphaScr z-score: 1.4

What do the screens show for `COc1ccc(NC(=O)CSc2ncccc2C(=O)NCc2ccc(C)cc2)c(OC)c1`?
CBX7 AlphaScr: 1.1; CBX7 AlphaScr z-score: 0.62

Arranged by molar mass (rising): five of the compounds above.
How did Cc1nccn1-c1c2c(c(C#N)c3nc4ccccc4n13)CCC2 do in these assays?
CBX7 AlphaScr: 1; CBX7 AlphaScr z-score: 0.21

What do the screens show for `COc1ccc(Nc2c3c(nc4ccccc24)CCCC3)cc1OC`?
CBX7 AlphaScr: 0.87; CBX7 AlphaScr z-score: -3.8

What do the screens show for `C=C(C)Cn1c(CCCNC(=O)Cc2ccccc2)nc2ccccc21`?
CBX7 AlphaScr: 1.1; CBX7 AlphaScr z-score: 1.4

Results for O=C(Cn1nc(Cc2cccnc2)c2ccccc2c1=O)NCc1ccc(Cl)cc1 ?
CBX7 AlphaScr: 0.91; CBX7 AlphaScr z-score: -0.12

How did COc1cc2c(cc1OC)C1C(C(=O)N3CCN(C)CC3)c3ccccc3C(=O)N1CC2 (configuration not stated) do in these assays?
CBX7 AlphaScr: 1; CBX7 AlphaScr z-score: 0.021

The list continues.
What do the screens show for `COc1cccc(NC(=O)Cc2c(C(=O)O)[nH]c3ccc(Cl)cc23)c1`?
CBX7 AlphaScr: 1.1; CBX7 AlphaScr z-score: 1.1

Results for Cc1ccccc1CN1C(=O)CSc2ccc(C(=O)NCc3ccccn3)cc21 ?
CBX7 AlphaScr: 1.1; CBX7 AlphaScr z-score: 0.89

What do the screens show for `Oc1ccccc1-c1n[nH]c(/C=C/c2ccc(F)cc2)n1`?
CBX7 AlphaScr: 1; CBX7 AlphaScr z-score: 0.39

Results for O=C(Nc1ccccc1C(=O)Nc1ccc(Cl)cc1)c1ccccc1F ?
CBX7 AlphaScr: 1.2; CBX7 AlphaScr z-score: 1.4

What do the screens show for `Cc1cc(Cl)ccc1OCCCC(=O)Nc1nc2ccccc2[nH]1`?
CBX7 AlphaScr: 1.1; CBX7 AlphaScr z-score: 2.7

What do the screens show for `Cc1ccccc1Nc1cc(C(=O)NCCc2ccccc2)c2ccccc2n1`?
CBX7 AlphaScr: 1.1; CBX7 AlphaScr z-score: 3.6

What do the screens show for `O=C(CCc1nc2ccccc2n(Cc2c(F)cccc2Cl)c1=O)NCCc1ccccc1`?
CBX7 AlphaScr: 0.94; CBX7 AlphaScr z-score: -0.64

What do the screens show for `CC(NC(=O)C(=O)NCc1ccccn1)C(c1cccs1)N1CCN(c2ccc(F)cc2)CC1` (configuration not stated)?
CBX7 AlphaScr: 0.8; CBX7 AlphaScr z-score: -6.6

Results for CCC(C)NC(=O)CCc1c(C)nc2c(-c3ccc(F)cc3)c(C)nn2c1C (configuration not stated) ?
CBX7 AlphaScr: 0.96; CBX7 AlphaScr z-score: -1

What do the screens show for `O=C(NCC1COc2ccccc2O1)c1cc(=O)[nH]c2ccc(S(=O)(=O)N3CCCCC3)cc12` (configuration not stated)?
CBX7 AlphaScr: 0.95; CBX7 AlphaScr z-score: -0.59
